# KCNQ2 pot: enhances the rat KCNQ2 potassium channel | O88943 | CHO-K1 KCNQ2, FluxOR thallium flux fluorescence; active compounds read high | B-score at 10 µM | 310,000 tested, 0.54% active | AID 2239;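 active means fluorescence ratio B-score at least 3 SD of library B-scores, with initial fluorescence B-score within 3 SD, cut at about 5.3 in these data; same plate scores as AID 2156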;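 further: B-score of peak minus minimum over baseline fluorescence ratio after K+ and Tl+ stimulus; positive B-score means potentiation of KCNQ2 with more thallium influx and brighter signal; only the inactives scoring about 0 or higher are listed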
# Target sequence (O88943 whole entry, looked up): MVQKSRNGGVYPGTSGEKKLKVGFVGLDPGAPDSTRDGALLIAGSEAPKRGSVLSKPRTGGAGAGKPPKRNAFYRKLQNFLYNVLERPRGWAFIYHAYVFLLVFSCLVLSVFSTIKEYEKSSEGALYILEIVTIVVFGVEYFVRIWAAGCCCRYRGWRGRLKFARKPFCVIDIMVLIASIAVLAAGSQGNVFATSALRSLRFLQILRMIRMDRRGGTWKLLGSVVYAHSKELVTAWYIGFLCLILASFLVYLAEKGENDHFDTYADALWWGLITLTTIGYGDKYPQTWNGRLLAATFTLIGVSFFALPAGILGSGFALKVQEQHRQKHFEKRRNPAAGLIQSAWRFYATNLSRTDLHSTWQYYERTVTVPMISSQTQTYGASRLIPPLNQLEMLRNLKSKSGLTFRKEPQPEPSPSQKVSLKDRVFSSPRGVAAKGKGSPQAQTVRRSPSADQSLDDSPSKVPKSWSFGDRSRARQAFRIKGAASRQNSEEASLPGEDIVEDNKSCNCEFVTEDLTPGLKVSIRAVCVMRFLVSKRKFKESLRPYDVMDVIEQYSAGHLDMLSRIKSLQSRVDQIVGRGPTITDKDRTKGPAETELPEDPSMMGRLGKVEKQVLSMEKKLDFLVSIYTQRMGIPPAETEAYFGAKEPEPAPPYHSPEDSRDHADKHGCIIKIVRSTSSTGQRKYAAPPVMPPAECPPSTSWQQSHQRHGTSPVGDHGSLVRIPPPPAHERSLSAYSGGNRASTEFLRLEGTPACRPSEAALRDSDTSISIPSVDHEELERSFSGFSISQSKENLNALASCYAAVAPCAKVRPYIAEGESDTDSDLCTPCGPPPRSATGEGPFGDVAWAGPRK
# KCNQ2 pot baseline: also measured in KCNQ2 pot; calls as there; B-score; compound at 10 µM; measured here: initial fluorescence intensity artifact check;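 brightness before thallium and not channel activity; 0 = typical well and far values either way flag optical interference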
# Starred values were filed as active, the others as inactive.
SMILES,KCNQ2 pot,KCNQ2 pot baseline
COc1cc2oc3ccccc3c2cc1N(CC(=O)N(C)C)S(=O)(=O)c1ccc(C)cc1,0.25,0.67
Cc1cccc(NC(=O)c2ccc(NC(=O)CC3SC(N4CCCC4)=NC3=O)cc2)n1 (centres undefined),0.19,-3.3
COc1cc(Cl)cc(C2NC(=O)NC(C)=C2C(=O)NCc2ccccc2)c1O (centres undefined),0.52,-1
C=CCN1C(=O)c2ccccc2C1(O)Cc1ccccc1 (centres undefined),0.09,0.54
S=c1[nH]nc(COc2ccccc2)n1/N=C/c1cccnc1,0.15,1.4
O=C(Nc1ccc2nccnc2c1)c1cnccn1,0.38,0.11
COCCCNC(=O)CCSc1ccc(C)cc1,0.41,-1.5
CCOC(=O)C1CCCN(S(=O)(=O)c2cc(Br)cc3c2N(C(=O)CC)CC3)C1 (centres undefined),0.86,0.34
Nc1ccc(-c2ccc(N)c([N+](=O)[O-])c2)cc1[N+](=O)[O-],0.03,-1.6
Cc1ccn2c(Nc3ccc4c(c3)OCO4)c(-c3ccc(O)cc3)nc2c1,1.4,1.2
Cc1ccc(-c2nc3cc(NC(=O)C(C)C)ccc3o2)cc1C,0.31,0.22
CCc1ccc(NC(=S)Nc2cccc(OC)c2)cc1,0.34,-1.6
O=C(OCn1nnc2ccccc2c1=O)c1ccc(Br)o1,0.49,-0.59
COc1ccc(-c2nnc(SCc3c(C)noc3C)o2)cc1,0.02,0.98
COc1cccc(OC)c1C(=O)Nc1ccc(N2CCCC2)cc1,0.05,0.98
CN(c1ccccc1)S(=O)(=O)c1cc(C(=O)c2nccn2C)ccc1Cl,0.06,-1.2
COC(=O)c1cccc(NC(=O)CN2CCN(c3ccc(OC)cc3)CC2)c1,0.04,-0.55
O=C(c1cc(COc2c(F)cccc2F)on1)N1C[C@H]2CC[C@H]1C2,0.31,0.36
COc1cccc(NC(=S)N(CCCN2CCOCC2)C(C)c2cc3cccc(OC)c3o2)c1 (centres undefined),0.58,2.5
O=C(Nc1ccc(NC(=O)c2ccccc2)nc1)c1ccncc1,2.2,-0.01
CCOc1ccc(C2C(C(=O)c3ccc(C)o3)=C(O)C(=O)N2Cc2cccnc2)cc1 (centres undefined),0.3,-1
CC(C)(C)c1nnc(NC(=O)c2ccc(Cl)nc2)s1,0.95,1.1
CC(C)CNC(=O)c1ccccc1NC(=O)/C=C/c1cccc([N+](=O)[O-])c1,0.44,0.85
CCN1C(=O)c2cccc3c(S(=O)(=O)Nc4ccccc4OC)ccc1c23,0.36,-1.5
COCCNC(=O)C(c1ccc(O)cc1)N(Cc1ccco1)C(=O)CCC(=O)Nc1nccs1 (centres undefined),0.94,-0.62
O=C(O)CCCn1c(O)c(C=C2N=c3ccccc3=N2)sc1=S,1.2,0.91
COc1cccc(C(=O)NCC(=O)N/N=C/c2cn[nH]c2-c2ccccc2)c1,0.7,-0.03
O=C(/C=C/c1ccco1)N1CCN(c2ncccn2)CC1,0.13,-0.15
CN(C)c1cc(Cl)c2nonc2c1N,0.14,1.9
N#Cc1ccccc1OCC(=O)OCC(=O)c1ccc2c(c1)NC(=O)CO2,0.72,-3.1
Cc1n[nH]c(=O)c2c(NC(=O)CSc3ncccn3)oc(C)c12,1.9,-1.3
O=C(NCCCN1CCN(c2ccccc2F)CC1)C1CC(=O)N(C2CCCC2)C1 (centres undefined),1.1,2.3
CCCn1c(=S)[nH]c2cc(C(=O)NCC3CCCO3)ccc2c1=O (centres undefined),0.02,-0.18
CCN(CC)S(=O)(=O)c1ccc(Cl)c(NC(=O)COC(=O)/C=C/c2cc(OC)c(OC)c(OC)c2)c1,0.68,1.5
CC1Cc2nc(SCC(=O)N3CCOCC3)n(C)c(=O)c2S1 (centres undefined),0.27,-0.89
O=C(O)c1ccc(NS(=O)(=O)c2cc(Cl)ccc2Cl)cc1O,0.07,-1.9
OCc1csc(=Nc2ccccc2)n1-c1ccccc1,0.32,-4.2
COc1ccc(NC(=O)c2ccccc2OCc2c(C)noc2C)cc1OC,0.05,0.44
CN(CC(=O)NC(=O)NCc1ccccc1)Cc1ccc(Cl)cc1,0.23,0.2
CCC(C)NC(=O)[C@H]1N2C(=O)c3c(ccc(OC)c3OC)C2SC1(C)C (some centres undefined),0.16,-0.6
COc1ccc(C(c2nnnn2C2CCCC2)N2CCC(C(N)=O)CC2)c(OC)c1 (centres undefined),0.01,-1.2
CCCn1c(SCC(=O)N2CCc3ccccc3C2)nc2c1c(=O)n(C)c(=O)n2C,0.39,0.51
COCc1cc(C)nc(SCC(=O)Nc2ccc3c(c2)OCCO3)c1C#N,2.8,0.06
CC(=O)Nc1ccccc1C(=O)C(=O)Nc1cccc(F)c1,1.8,-0.23
Cc1cccc(Cc2nnc(CCC(=O)NCc3cnc4ccccn34)o2)c1,0.13,-3
Cc1c(C(=O)N2C[C@@H](C)O[C@@H](C)C2)oc2c(F)cccc12,0.34,0.59
O=[N+]([O-])c1ccccc1S(=O)(=O)N1CCCCC1,0.67,-0.28
Cc1ccc(SCC(=O)Nc2cccc(C(=O)NC(C)(C)C)c2)cc1,1.5,-1.9
COc1cc(SC)ccc1C(=O)Nc1c(Cl)cncc1Cl,0.45,0.92
Cn1nnnc1SCC(=O)N1CCN(c2ccccc2)CC1,0.87,-0.35
O=C(CCC(=O)Nc1ccc(F)cc1)N/N=C/c1cc([N+](=O)[O-])ccc1O,1,1.4
Cc1cccc(N=C2NN=C(c3c[nH]c4ccccc34)CS2)c1,1.7,0.03
CCc1nnc(NC(=O)c2ccc3c(c2)C(=O)N(C(C)(C)C)C3=O)s1,0.69,-0.17
Cc1cc(C)nc(/N=C(\N)Nc2cccc([N+](=O)[O-])c2)n1,0.59,0
O=C(Cn1c(NCCCO)nc2ccccc21)c1ccc(Cl)cc1Cl,1.9,-0.26
O=c1[nH]c2ccccc2nc1C(F)(F)C(F)F,2.9,2.4
CCCCOCCCNC(=O)N[C@H](C(=O)OC)C(C)CC (some centres undefined),1,1.1
COc1ccc(Br)cc1CNC(=O)C1CCN(S(=O)(=O)N2CCCC2)CC1,0.37,-0.02
Cc1ccccc1S(=O)(=O)Nc1ncnc2scc(-c3ccccc3)c12,0.05,-1.1
COC(=O)c1c(O)cc(C(C)(C)C)n(-c2ccccc2)c1=O,2.1,-2.2

# Structures from the list above with a tert-butyl group (four):
SMILES,KCNQ2 pot,KCNQ2 pot baseline
CC(C)(C)c1nnc(NC(=O)c2ccc(Cl)nc2)s1,0.95,1.1
Cc1ccc(SCC(=O)Nc2cccc(C(=O)NC(C)(C)C)c2)cc1,1.5,-1.9
CCc1nnc(NC(=O)c2ccc3c(c2)C(=O)N(C(C)(C)C)C3=O)s1,0.69,-0.17
COC(=O)c1c(O)cc(C(C)(C)C)n(-c2ccccc2)c1=O,2.1,-2.2

# Other entries follow.
SMILES,KCNQ2 pot,KCNQ2 pot baseline
CC(=O)c1ccc(Sc2nnnn2-c2ccccc2)c([N+](=O)[O-])c1,0.49,-1.2
COc1ccc(CC(=O)Nc2c3c(nn2C(C)(C)C)CS(=O)(=O)C3)cc1OC,0.03,-0.15
CC1(C)CC(=O)C2=C(C1)OC(N)=C(C#N)C2c1cccs1 (centres undefined),1.2,-0.04
COc1ccc(S(=O)(=O)Nc2c(F)cccc2F)cc1,0.13,0.96
Cc1ccc2c(C(=O)CN3CC(C)CC(C)C3)c(C)[nH]c2c1 (centres undefined),0.24,-0.53
NC(=O)CC(NC(=O)c1ccc(Br)cc1)c1ccc(N2CCC(Br)CC2)c([N+](=O)[O-])c1 (centres undefined),0.44,1.4
C/C(N)=C(/C#N)C(=O)COC(=O)COc1ccc(Cl)cc1,0.55,-0.28
COc1cccc(NC(=O)N2CCOCC2)c1,1.5,-1.1
Cc1cccc2[nH]c(CN(C)C(=O)C3CCC(=O)N(C4CC4)C3)nc12 (centres undefined),0.38,-0.02
CCC(C)C(NC(=O)C1CCC(C)CC1)C(=O)NCc1cccnc1 (centres undefined),0.04,2.1
CC(OC(=O)CCC(=O)c1ccc(F)cc1)C(=O)NC1CCCCC1C (centres undefined),0.35,0.83
O=C(CNC(=O)c1ccc(N2C(=O)c3ccccc3C2=O)cc1)OCC(=O)c1cccc2ccccc12,0.28,0.61
O=C(c1cccnc1)N1N=C(c2cccs2)CC1c1ccc(F)cc1 (centres undefined),0.08,-1.3
COc1ccc(OCc2nn3c(-c4cccc(OC)c4)nnc3s2)cc1,0.07,0.45
Cc1cc(=O)[nH]c2c(C)c(Cl)ccc12,1.4,-0.2
COc1cc(OC)cc(C(=O)N/N=C\c2ccoc2)c1,0.84,-1
O=S(=O)(NCc1cccnc1)c1cccn1-c1ncc(C(F)(F)F)cc1Cl,1.7,-0.85
COCCn1c(=NC(=O)/C=C/c2ccccc2Cl)sc2cc(NC(C)=O)ccc21,0.67,-0.94
Cc1cccc(NC(=O)NCC2CC2)c1,0.1,-1.7
Cc1ccccc1NC(=O)C1CCCN1/C=C/C(=O)C(F)(F)F (centres undefined),0.06,-1.8

# A few values from the list.
# KCNQ2 pot baseline with `CCC(C)NC(=O)[C@H]1N2C(=O)c3c(ccc(OC)c3OC)C2SC1(C)C` (some centres undefined) = -0.6
# KCNQ2 pot baseline with `Cc1c(C(=O)N2C[C@@H](C)O[C@@H](C)C2)oc2c(F)cccc12` = 0.59
# KCNQ2 pot with `C/C(N)=C(/C#N)C(=O)COC(=O)COc1ccc(Cl)cc1` = 0.55
# KCNQ2 pot baseline with `CCN(CC)S(=O)(=O)c1ccc(Cl)c(NC(=O)COC(=O)/C=C/c2cc(OC)c(OC)c(OC)c2)c1` = 1.5
# KCNQ2 pot with `Cc1cc(=O)[nH]c2c(C)c(Cl)ccc12` = 1.4

# Next records follow.
SMILES,KCNQ2 pot,KCNQ2 pot baseline
CN(C)S(=O)(=O)c1cccc(NC(=O)C(c2ccccc2)c2ccccc2)c1,1.7,1.7
CCN(CCO)Cc1cc(=O)oc2c(C)c(C)ccc12,0.18,0.01
Cc1nnc2sc(COc3ccccc3)nn2c1=O,1.6,-0.24
COC(=O)c1cc(S(=O)(=O)N2CCCCC2C)c[nH]1 (centres undefined),1.1,0.66
Cc1cc(NC(=O)c2cccc3ccccc23)cc(C)c1OCC(=O)N1CCOCC1,0.02,-1.6
NC(=O)CCCn1c(C(=O)c2ccc(Cl)cc2)c2ccc([N+](=O)[O-])cc2[n+]1[O-],0.04,1.9
COc1cc(S(=O)(=O)N2CCOCC2)ccc1F,0.34,-2.9
CCc1ccc(NC(=O)CC2C(=O)Nc3c2c(=O)n(C)c(=O)n3C)cc1 (centres undefined),0.24,0.64
CCOC(=O)c1sc(N)c(C(=O)Nc2ccccc2)c1C,1.1,-1
O=C1CSC2=NCN(c3ccc4c(c3)OCO4)CN12,0.24,-0.62
CC(=O)Nc1cccc(NC(=S)Nc2ccc(F)cc2F)c1,1.6,0.21
COc1ccc(NC(=O)CN2C(=O)NC(C)(c3ccccc3)C2=O)c(OC)c1 (centres undefined),0.22,-0.25
CCSCCOC(=O)C1=C(C)NC(=O)NC1c1ccc2c(c1)OCO2 (centres undefined),0.72,-1.6
Cc1cc(C(=O)Nc2ccncc2)ccc1[N+](=O)[O-],0.23,0.77
CCOC(=O)C1(CC2CCCCO2)CCN(S(=O)(=O)c2ccccc2)CC1 (centres undefined),0.33,0.8
CC(=O)c1cc2c(cc1NC(=O)Cn1nc(-c3ccc(F)cc3)ccc1=O)OCO2,0.07,2.5
CC(Sc1nc(=O)cc(N)n1CCc1ccccc1)C(=O)NCc1ccccc1 (centres undefined),0.01,-1.5
Cc1c(NC(=O)c2ccc(N3C(=O)C4C5C=CC(C5)C4C3=O)cc2)c(=O)n(-c2ccccc2)n1C (centres undefined),0.31,0
CCC(C)NCCOc1ccc(C(C)(C)c2ccccc2)cc1 (centres undefined),0.02,0.1
O=C(CCN1C(=O)c2ccccc2S1(=O)=O)N1CCN(c2ccccc2F)CC1,1.2,1.6
Cc1nc2cc(NC(=O)Nc3ccc(Br)cc3)ccc2o1,1.5,0.75
COc1ccc(-n2c(SCC(=O)N3CCCC(C)C3)nnc2-c2cccnc2)cc1 (centres undefined),0.6,-1.1
Nc1ccccc1N=Nc1ccccc1N,1.6,-1.3
CCOC(=O)c1c(-c2ccccc2)csc1NC(=S)NC,7.8*,0.68*
Cc1ccc(CNC(=O)CCc2nc(-c3cccs3)no2)cc1,0.1,0.08
Cc1cc2oc(C(=O)Nc3ccc(S(=O)(=O)N4CCCC(C)C4)cc3)cc(=O)c2cc1Cl (centres undefined),1.1,0.14
COc1ccc(C2C3=C(CC(C)(C)CC3=O)OC(N)=C2[N+](=O)[O-])cc1 (centres undefined),0.47,-1.6
O=C(Nc1nc(-c2ccc(Oc3ccccc3)cc2)cs1)C1=COCCO1,0.01,1
O=C(CCN1C(=O)c2ccccc2C1=O)N1CCCCCC1,0.1,0.31
CCn1nnnc1-c1ccc(OC)c(S(=O)(=O)Nc2ccc(OC)cc2)c1,0.49,-3.5
COc1ccccc1-n1ccnc1SCC(=O)NCc1ccco1,0.91,2.1
CC(NC(=O)Cc1ccccc1)c1ccc(F)cc1 (centres undefined),1,-1.2
CC(C)(C)NC(=O)CSc1nnc(NC(=O)CCc2ccccc2)s1,0.42,0.4
C/C(CC(=O)Nc1cccc(Cl)c1C)=N\NC(=O)Cc1csc(N)n1,1.1,-1.5
CCc1ccc(CN(C)C(=O)c2cc(COc3ccc(-n4cncn4)cc3)on2)cc1,0.01,0
O=C(N/N=C/c1ccc2ncccc2c1)c1ccco1,0.57,-2
COc1ccc(Oc2nc3c(c(=O)n(C)c(=O)n3C)n2C)cc1,0.82,-0.44
CC(=O)Oc1ccc(C(=O)Nc2cccc(C(=O)NC(C)(C)C)c2)cc1,2.5,-0.18
O=C(c1ccc(Cl)cc1)[C@@H]1[C@@H]2C(=O)N(c3ccc(Cl)cc3)C(=O)[C@@H]2C2c3ccccc3C=NN21 (some centres undefined),1.4,0.52
CCN(CC)CCCn1c2c(c(SCC(=O)Nc3nccs3)nc1=O)CCC2,0.68,-0.25

# A portion of the library; count on the stated rates, not on these rows.
